PV pol inh – poliovirus RNA polymerase inhibition; P03300; poliovirus polymerase elongation, fluorescence polarization; stronger effect = lower value; % elongation, % (compound at 16.7 µg/mL); 150,000 tested, 0.66% active; AID 588519; in the data active means % elongation below about 90%; further: some results filed as inactive read as strong as hits
Target sequence (P03300 1749-2209 limits assumed): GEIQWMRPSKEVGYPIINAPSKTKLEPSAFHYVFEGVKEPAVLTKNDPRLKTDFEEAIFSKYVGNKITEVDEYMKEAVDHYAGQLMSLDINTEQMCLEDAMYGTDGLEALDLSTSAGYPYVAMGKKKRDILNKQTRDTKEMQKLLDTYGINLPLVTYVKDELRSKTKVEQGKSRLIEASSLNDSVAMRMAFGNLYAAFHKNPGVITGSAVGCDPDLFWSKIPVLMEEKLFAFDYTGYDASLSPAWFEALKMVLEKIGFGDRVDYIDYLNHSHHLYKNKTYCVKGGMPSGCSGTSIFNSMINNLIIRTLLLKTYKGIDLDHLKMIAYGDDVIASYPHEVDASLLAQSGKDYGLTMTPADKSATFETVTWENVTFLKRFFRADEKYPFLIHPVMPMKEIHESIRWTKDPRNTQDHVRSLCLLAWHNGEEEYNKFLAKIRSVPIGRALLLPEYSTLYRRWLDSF
MbtI inh – MbtI salicylate synthase inhibition. AID 493033. purified MbtI enzyme, fluorescence intensity read-out. 100,000 tested, 0.89% active. inhibition, %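 (about 17 µg/mL by stock and volumes)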;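 active means above 50% in both replicates, above 80% if mildly self-fluorescent; inactive means the rest, strongly fluorescent compounds included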;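 further: 0% = mean of negative and 100% = mean of positive controls; one replicate is shown; some compounds called inactive have numbers as strong as hits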
MenB inh – blocks the Mycobacterium tuberculosis MenB enzyme; P9WNP5; MenB enzyme assay, absorbance read-out; some hits fall short of the stated cut; inhibition, %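 (about 12 µg/mL by stock and volumes)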; 100,000 tested, 0.43% active; AID 540299;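 active means mean of two replicates above 30%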;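 further: 0% = no compound and 100% = wells with inactive enzyme; the first replicate is given; strong numbers were not always called active; inactives centre near -10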
Target sequence (P9WNP5 whole entry, looked up): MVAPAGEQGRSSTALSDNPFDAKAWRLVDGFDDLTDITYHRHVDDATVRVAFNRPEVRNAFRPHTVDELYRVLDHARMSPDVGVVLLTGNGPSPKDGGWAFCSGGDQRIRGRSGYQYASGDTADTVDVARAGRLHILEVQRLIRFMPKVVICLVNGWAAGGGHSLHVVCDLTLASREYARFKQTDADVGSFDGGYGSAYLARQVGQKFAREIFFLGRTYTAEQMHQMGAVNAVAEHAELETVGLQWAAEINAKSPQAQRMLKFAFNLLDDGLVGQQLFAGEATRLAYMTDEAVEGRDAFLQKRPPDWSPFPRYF
PV pol inh intensity – second read-out of PV pol inh, no call of its own (marks repeat the call); % elongation; measured here: total intensity read-out; formula for this scale not given here;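 total fluorescence in place of polarization; lower means less elongation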
* hit, by the source's call; i = inactive; / = no result given.

SMILES	PV pol inh	PV pol inh intensity	MbtI inh	MenB inh
N#CCn1c(COC(=O)CNC(=O)c2cccs2)nc2ccccc2c1=O	106	113	-28	0
CCn1c(CCNC(=O)c2cccs2)nnc1SCc1ccc(Cl)c(Cl)c1	103	101	-5	-3
COc1ccc(C2CC(=O)c3cnc(Nc4ccccc4OC)nc3C2)cc1 (stereo unspecified)	102	101	-9	-5
COCc1cc(=O)[nH]c(Sc2c(-c3ccccc3)c3ccc(Cl)cc3[nH]c2=O)n1	102	104	9	-13
c1cc(CNc2ccc(N3CCCC3)cc2)ccn1	99	100	100*	-20
O=C(CSc1ccc(-c2ccncc2)nn1)NCC1CCCO1 (stereo unspecified)	104	104	-9	-43
CCCc1cc(=O)[nH]c(SC(C)C(=O)c2ccccc2)n1 (stereo unspecified)	101	103	45	1
COC(=O)CSc1nc(-c2ccccc2)cc(C)c1C#N	99	99	2	-15
O=C1CC2(CCCCC2)Oc2ccc(O)cc21	98	102	-173	-8
N#CC1=C(N)N2CCSC2=NC1(C(F)(F)F)C(F)(F)F	104	104	2	-1
COc1ccc(-c2csc(C)n2)cc1OC	101	103	5	/
O=C(Cn1[nH]c(=O)c2ccccc2c1=O)NCCCSc1ccc(F)cc1	101	99	8	-3
CCCCCC(=O)N1CCN(CCn2c(CC)c3c(=O)n(-c4nc5ccccc5s4)[nH]c3cc2=O)CC1	99	101	7	-51
Cc1ccc(-c2nc3ccccc3[nH]2)cc1N	99	100	117	3
NC(=O)CSc1nc(N)c(NC(=O)c2cccs2)c(=O)[nH]1	105	107	-6	-9
O=C(c1ccc(CS(=O)(=O)c2ccccc2)cc1)N1CCCC1	100	102	-7	-1
O=C(CN(Cc1ccco1)C(=O)c1ccccc1)Nc1ccc(Cl)c(Cl)c1	104	114	/	-11
CCC1C(C#N)=C(SC(C(N)=O)c2ccccc2)NC2=C1C(=O)CC(C)(C)C2 (stereo unspecified)	107	106	-4	-33
CCc1nnc(NC(=O)C2CCN(S(=O)(=O)Cc3ccccc3)CC2)s1	101	100	-3	8
CCn1c(SCC2COc3ccccc3O2)nnc1-c1cccs1 (stereo unspecified)	102	99	-28	-7
O=C(COC(=O)c1ccc(Cl)nc1)NCc1ccccc1	102	106	-17	/
O=C(NCCCN1CCN(c2ccccc2)CC1)NCc1ccccc1	105	104	-10	4
O=C(NCCN1CCN(c2ccccc2)CC1)c1ccc2c(=O)n(CCc3ccccc3)c(=O)[nH]c2c1	102	102	-5	-20
C=CCNC(=O)Nc1ccc(Cl)cc1	100	105	/	-6
CCN(CC)S(=O)(=O)c1ccc(NC(=O)COc2c(OC)cccc2OC)cc1	102	99	9	-31
O=c1[nH]cc(N2CCOCC2)c(=O)[nH]1	102	103	2	11
CC(C)CCn1cnc2c1c(=O)n(CC(=O)N1c3ccccc3NC(=O)C1(C)C)c(=O)n2Cc1ccccc1	108	110	-21	-32
COc1ccc(/C=C2/N=C(c3ccccc3)OC2=O)cc1	102	104	-5	/
O=C(NCc1ccccc1)N1CC2C=CC1C2 (stereo unspecified)	99	103	3	-20
O=c1[nH]c(=S)nc2cc[nH]n12	100	101	31	15
CCOc1ccc(NC(=O)CN(C)c2ccc(S(=O)(=O)N(C(C)C)C(C)C)cn2)cc1OCC	105	109	-14	-14
CC1CN(C(=O)CCC(=O)NC2CCN(Cc3ccccc3)CC2)c2cc(Cl)ccc2O1 (stereo unspecified)	106	99	-2	-30
CCOc1ccc(-n2nc(C(=O)N3CCC4(CC3)OCCO4)c3ccccc3c2=O)cc1	98	99	i	-2
CCOc1ccc(NC(=S)NCCCn2ccnc2)cc1	101	96	11	-2
CCN1CCN(C(=O)C(C)n2c(C)c3cnn(-c4ccccc4)c(=O)c3c2C)CC1 (stereo unspecified)	105	104	-3	-3
Cc1cc(C)n(-c2ccccc2)n1	103	105	-11	/
Cc1cccc(S(=O)(=O)NCc2cn3ccsc3n2)c1	99	101	-1	-5
CN(C(=O)COC(=O)c1ccc2ccccc2c1)c1ccccc1	101	106	101	/
NC(=O)Cn1cc(F)c(=O)[nH]c1=O	102	99	-6	-41
O=C(CSc1ccc2c(c1)OCCO2)NCC(F)(F)F	107	107	-2	-12
N#CC(C#N)=CC1CCCCC1	121	120	-4	0
CCC(C)(C)C(=O)Nc1ccccc1C(C)C	100	100	-9	-56
NC(=O)C1CCN(C2=NC(=O)/C(=C\c3ccc(Br)cc3)S2)CC1	99	101	8	-10
Cc1oc(-n2cccc2)c(C#N)c1C(=O)O	/	/	1	-4
COc1ccc(C(=O)Nc2nc(C)cs2)cc1S(=O)(=O)N1CCCCC1C (stereo unspecified)	99	106	5	-9
O=C(CC1SC(=O)N(c2ccccc2)C1=O)Nc1ccccc1 (stereo unspecified)	104	107	23	-8
NCCSCc1cccs1	101	105	16	-14
CCCNC(=O)c1ccc(CSc2nc3ccncc3[nH]2)cc1	101	96	2	4
CC(C)(Oc1ccccc1OC(=O)c1ccccc1)C(=O)CBr	102	105	62*	/
CCCCC(=O)Nc1nnc(-c2ccc(C)c(C)c2)o1	101	108	-8	0
COC(=O)C1=C(C)NC(C)=C(C(=O)OC)C1C1CC=CCC1 (stereo unspecified)	103	102	4	18
CN1/C(=C/C(=O)C2CCC2)Sc2ccccc21	100	99	6	2
CC(NC(=O)C1CCN(C(=O)N(C)C)CC1)c1ccccc1 (stereo unspecified)	103	105	11	-3
O=C1NC(=S)S/C1=C\c1cn(CC(=O)N2CCOCC2)c2ccccc12	126	149	4	-142
O=C(NCCCN1CCN(Cc2ccccc2)CC1)c1cnn(-c2ccccc2)c1-n1cccc1	102	105	-9	-8
O=C(NC(=O)c1ccccc1)NC1CCCC1	100	103	-7	3
COc1ccc(N2CCN(C(=O)C3CCN(S(=O)(=O)c4ccc5c(c4)oc(=O)n5C)CC3)CC2)cc1	101	103	-12	-22
Cc1ccc(C(=O)N2Cc3ccccc3CC2C(=O)O)cc1 (stereo unspecified)	105	101	-16	-4
CC(C(=O)O)(c1ccccc1)c1ccccc1	101	110	/	-13
N#Cc1ccc(-c2ccc(OCc3ncc(-c4ccccc4)o3)cc2)cc1	102	109	105	4

New compounds follow:
SMILES	PV pol inh	PV pol inh intensity	MbtI inh	MenB inh
O=C(CCn1c(=O)c2ccccc2n(CC(=O)NCc2ccco2)c1=O)NCCc1ccc(Cl)cc1	99	101	0	17
COc1ccccc1N(CC(=O)Nc1ccc2c(c1)OCO2)S(=O)(=O)c1cccs1	100	91	-4	-28
CN(Cc1cc(Br)cc(Br)c1N)C1CCCCC1	99	101	-17	-2
O=C(O)CSC(=S)N1CCOCC1	101	95	-6	-23
OCC1CCCN1Cc1ccc(Cl)cc1Cl (stereo unspecified)	103	105	3	10
CCOC(=O)/C(C#N)=C/C=C1/Sc2ccccc2N1C	44	235	-4	-27
N#Cc1ccc(/C=N/NC(=O)C2C3CCCCC32)cc1 (stereo unspecified)	102	100	2	-5
CCN(CC)C(=O)Cn1cc(S(=O)(=O)CC(=O)N2CCCCC2)c2ccccc21	103	97	1	-7
CCc1ccc(NC(=S)NCC2CCCN2CC)cc1 (stereo unspecified)	103	105	4	-1
O=C(CN1CCc2ccccc2C1)Nc1ccccc1	103	102	-24	4
CCOc1ccc(C2SC[C@H](C(=O)O)N2C(C)=O)cc1 (stereo partly specified)	103	104	1	-6
COCCn1c(SCc2coc(-c3cccs3)n2)nc2scc(-c3ccccc3)c2c1=O	100	104	2	-15
Cn1c(NCc2ccncc2)nc2ccccc21	99	99	5	13
O=S(=O)(c1ccc(Cl)cc1)N(O)c1ccc(Cl)cc1	97	104	88*	19
N/C(=N\N=C\c1cccs1)SCc1ccccc1	100	94	-3	-19
CC(C)S(=O)(=O)c1ncc(CO)n1Cc1ccccc1	101	104	-4	12
COc1ccccc1OCCSc1ncnc2nc[nH]c12	101	100	11	-1
CC(C)NC(=O)N(Cc1ccccc1)Cc1cccnc1	105	106	-3	5
c1csc(C2=NN3C(C2)c2ccccc2OC3c2cccs2)c1 (stereo unspecified)	118	124	-307	-4
Cc1nnc2c3ccccc3nc(NCCC3=CCCCC3)n12	105	103	-6	-41
COC(=O)c1ccc(COC(=O)C(C)N=C2NS(=O)(=O)c3ccccc32)o1 (stereo unspecified)	105	105	-12	-5
CCCc1c(C(=O)OCC)[nH]c2c1C(=O)CC(C)(C)C2	100	102	-7	-3
CC(C)(C)N1C(=O)c2ccc(C(=O)Nc3ccccc3C(=O)O)cc2C1=O	99	103	/	4
CCOC(=O)N1CCC(c2nc(C)sc2C(=O)NCc2ccc(Cl)cc2)CC1	97	102	6	-3
O=c1cc(CSCc2ccc(Cl)cc2)[nH]c(=O)[nH]1	109	117	1	-13
O=C(NCc1cccnc1)c1ccc(/C=C2\Sc3ccccc3N(Cc3ccccc3F)C2=O)cc1	103	108	3	-26
CCCn1nc(C(=O)N2CC(=O)Nc3ccccc32)c2ccccc2c1=O	98	104	4	4
COC(=O)c1ccccc1N=Cc1c(O)[nH]c(=S)[nH]c1=O	102	105	-17	-107
CCOC(=O)c1cc(=O)n2[nH]c(-c3ccc(Br)cc3)cc2n1	102	100	-110	-1
O=C1CC(/C=C/c2ccncc2)=Nc2ccccc2N1	100	105	-8	/

An excerpt from above with just PV pol inh intensity.
canonical_smiles,PV pol inh intensity
CC(NC(=O)C1CCN(C(=O)N(C)C)CC1)c1ccccc1 (stereo unspecified),105
CC(C)(Oc1ccccc1OC(=O)c1ccccc1)C(=O)CBr,105
CCCCC(=O)Nc1nnc(-c2ccc(C)c(C)c2)o1,108
CCC(C)(C)C(=O)Nc1ccccc1C(C)C,100
CCCc1cc(=O)[nH]c(SC(C)C(=O)c2ccccc2)n1 (stereo unspecified),103
O=c1cc(CSCc2ccc(Cl)cc2)[nH]c(=O)[nH]1,117
CC(C)(C)N1C(=O)c2ccc(C(=O)Nc3ccccc3C(=O)O)cc2C1=O,103

Next structures:
SMILES	PV pol inh	PV pol inh intensity	MbtI inh	MenB inh
Cc1ccc2nc(NNC(=O)c3ccc(S(=O)(=O)N4CC(C)OC(C)C4)cc3)sc2c1 (stereo unspecified)	103	105	-2	-75
CCC(Oc1ccccc1)C(=O)N(C)C (stereo unspecified)	101	100	-16	-21
O=C(COc1ncnc2ccccc12)N1CCCCC1	102	105	4	/
COc1cc(C(=O)CN2CCOCC2)cc(OC)c1OC	101	108	-10	6
CCN1CCC(N(Cc2ccc(F)cc2)C(=O)Nc2ccccc2Cl)CC1	100	95	-7	-12
O=C(CCc1nc2cccnc2n1Cc1cccs1)N1CCc2ccccc21	105	117	-6	-17
OC1(C#CCN2CCCCCC2)CCCCC1	102	99	-14	16
CCc1ccc2oc(-c3ccc(NC(=O)c4ccccc4)cc3)nc2c1	102	106	i	8
CSc1ccccc1NC(=O)Cn1nc(C(F)(F)F)cc1C	100	102	2	-25
O=C(Nc1ccccc1)Nc1cccc(C(F)(F)F)c1	104	107	1	-2
COc1nonc1NC(C)=O	105	110	/	-13
O=C1NC(=O)C(=Cc2ccc(Sc3ccc(Cl)cc3)o2)C(=O)N1	104	100	92*	-26
COc1ccc2c(c1)c1nc3ccccc3nc1n2C	95	108	11	-16
NC(=S)Cc1ccccc1	98	100	50	-7
CC1Cc2cc(CCC(=O)O)ccc2O1 (stereo unspecified)	96	92	-8	6

Copied from the list:
Entry of CCC(Oc1ccccc1)C(=O)N(C)C (stereo unspecified) under PV pol inh: 101
Entry of O=C(COc1ncnc2ccccc12)N1CCCCC1 under MbtI inh: 4
Entry of CSc1ccccc1NC(=O)Cn1nc(C(F)(F)F)cc1C under MbtI inh: 2
Entry of COc1nonc1NC(C)=O under PV pol inh intensity: 110

(further entries)
SMILES	PV pol inh	PV pol inh intensity	MbtI inh	MenB inh
Cn1c(=O)c2cc(C(=O)c3ccccc3O)cnc2n(C)c1=O	104	109	-3	-28
O=C(Nc1ccc2c(c1)OCO2)c1ccccc1	104	101	4	-14
CCCNC(=O)c1ccc(N2CC3CC(C2)c2cccc(=O)n2C3)c(NS(=O)(=O)c2ccc3c(c2)OCCO3)c1 (stereo unspecified)	100	101	-4	-3
COc1cccc(NCc2cccc3c2CN(CC2CCCO2)C3)c1 (stereo unspecified)	98	103	-7	11
O=C(Nc1ccccc1)/C(=C/c1ccccc1)NC(=O)c1ccco1	103	104	-35	-20
O=C(CN1CCCC1c1cccs1)Nc1cc(C(F)(F)F)ccc1-n1cncn1 (stereo unspecified)	98	90	-11	-35
COCCN1C(=O)/C(=C\c2c(Cl)cccc2Cl)C(C(=O)OC)=C1C	107	116	/	-29
Cc1noc(C)c1CSc1ncccc1C(=O)NCCc1ccc(S(N)(=O)=O)cc1	104	110	7	4
CCOC(=O)CSc1nnc(Cn2nnc3ccccc32)n1-c1ccc(F)cc1	105	108	3	3
COc1ccc(N2CCN(C(=O)CCS(=O)(=O)c3ccc4nc(C)sc4c3)CC2)cc1	102	100	-13	-2
C=CCNC(=O)c1ccccc1NC(=O)c1ccc(OC)cc1	103	98	105	-34
O=C(NN=C1CCCCCCC1)c1ccc(CN2CCOCC2)cc1	103	103	1	-5
COC(=O)c1cc2sccc2n1Cc1nc(-c2ccccc2F)oc1C	101	103	7	9
Cc1c(C(=O)NC(C)C)oc2ccc(S(=O)(=O)N3CCCC3)cc12	101	96	-1	-5
COc1ccc(-c2csc(Cc3nnc4n3CCCCC4)n2)cc1	104	98	-15	-11

3 structures from above, sorted by formula weight, rising:
SMILES	PV pol inh	PV pol inh intensity	MbtI inh	MenB inh
COCCN1C(=O)/C(=C\c2c(Cl)cccc2Cl)C(C(=O)OC)=C1C	107	116	/	-29
COc1ccc(N2CCN(C(=O)CCS(=O)(=O)c3ccc4nc(C)sc4c3)CC2)cc1	102	100	-13	-2
CCCNC(=O)c1ccc(N2CC3CC(C2)c2cccc(=O)n2C3)c(NS(=O)(=O)c2ccc3c(c2)OCCO3)c1 (stereo unspecified)	100	101	-4	-3
